Measles inh = inhibitors of measles virus growth in infected cells. infected Vero cells, GFP fluorescence, 64 h; stronger effect = lower value. z-score (concentration not given with the values). 33,000 compounds, 0.1% hits. AID 745;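 active = z-score under -3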;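 note: score is relative to mean and SD of the compound wells of a plate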
* marks the source's active call; other numbers are inactive results. The list is partial; the hit share may differ from the screen's.

> COC(=O)c1ccccc1NC(=O)c1sc2ncnc(N(C)c3ccccc3)c2c1C
  Measles inh: -0.35

> Cn1c2ccccc2c2nnc(SCC(=O)Nc3cccc(F)c3)nc21
  Measles inh: -0.53

> Cc1nc2ccc3nc(NC(=O)c4ccc(S(=O)(=O)N(C)c5ccccc5)cc4)sc3c2s1
  Measles inh: 2.9

> CCOc1ccc(CCNC(=O)N2CCOCC2)cc1OCC
  Measles inh: -0.37

> C=CCOc1ccc2c(c1)CCC1C2CCC2(C)C(=O)CCC12 (stereo not drawn)
  Measles inh: -1.2

> COc1cccc(C2C(N3C(=O)c4ccccc4C3=O)C(=O)N2c2ccc(C)c(C)c2)c1 (stereo not drawn)
  Measles inh: 0.93

> O=C(NCCC1=CCCCC1)C1CCC(=O)N1C1CCCCC1 (stereo not drawn)
  Measles inh: -1.4

> CCOC(=O)c1c(N=c2oc3cc(O)ccc3cc2C(N)=O)sc2c1CCCC2
  Measles inh: -0.32

> c1ccc(CSc2nnc3c(n2)-c2cccc4cccc-3c24)cc1
  Measles inh: 0.95

> Cc1ccc(C)c(S(=O)(=O)NCC(=O)O)c1
  Measles inh: -0.35

> COC(=O)c1cn[nH]c1N
  Measles inh: -0.05

> CC1CCC(NC(=O)C(NC(=O)c2ccc(C34CC5CC(CC(C5)C3)C4)cc2)C(C)C)CC1 (stereo not drawn)
  Measles inh: 1.8

> CCc1ccc(-c2csc(-c3cc4c(ccc5ccccc54)oc3=O)n2)cc1
  Measles inh: -0.14

> Cc1c(C(=O)NC2CCCC2)oc2ccc(S(=O)(=O)N3CC(C)CC(C)C3)cc12 (stereo not drawn)
  Measles inh: 0.03

> O=C1CCCN2N=C(SCC(=O)Nc3ccc(Br)cc3)SC2=N1
  Measles inh: 0.61

> COc1ccccc1Cn1c(=S)[nH]c2cc(C(=O)NCCN(C)C)ccc2c1=O
  Measles inh: -0.86

> CC(C)(O)P1(=O)OCC2(CO1)COP(=O)(C(C)(C)O)OC2 (stereo not drawn)
  Measles inh: -0.13

> Cc1ccc(CNc2ccc(N3C(=O)C4CCC(C)CC4C3=O)cc2[N+](=O)[O-])cc1 (stereo not drawn)
  Measles inh: -0.98

> CCCCCOc1ccc(NC(=O)c2ccccc2-c2ccccc2)cc1
  Measles inh: -0.31

> Cc1ccc(C)n1-c1ccc2ncsc2c1
  Measles inh: -0.02

> CCOC(=O)c1cc(-c2ccccc2OC)no1
  Measles inh: 2.4

> O=C(O)CCCC(=O)Nc1ccc(I)cc1
  Measles inh: 0.22

> CCOC(=O)C1=C(C)NC(=O)c2c(ccc(OC)c2OC)C1O (stereo not drawn)
  Measles inh: -0.28

> COc1ccc(C(C)=O)cc1CSc1nc2ccccc2c(=O)n1CCC1=CCCCC1
  Measles inh: 0.76

> CCC(C)NC(=O)c1c(-c2ccccc2Cl)noc1C (stereo not drawn)
  Measles inh: 1.3

Ordered by SMILES length (rising): some entries from above
> COC(=O)c1cn[nH]c1N
  Measles inh: -0.05

> Cc1ccc(C)n1-c1ccc2ncsc2c1
  Measles inh: -0.02

> O=C(O)CCCC(=O)Nc1ccc(I)cc1
  Measles inh: 0.22

> CCOC(=O)c1cc(-c2ccccc2OC)no1
  Measles inh: 2.4

> Cc1ccc(C)c(S(=O)(=O)NCC(=O)O)c1
  Measles inh: -0.35

> CCOc1ccc(CCNC(=O)N2CCOCC2)cc1OCC
  Measles inh: -0.37

> CCC(C)NC(=O)c1c(-c2ccccc2Cl)noc1C (stereo not drawn)
  Measles inh: 1.3

> O=C(NCCC1=CCCCC1)C1CCC(=O)N1C1CCCCC1 (stereo not drawn)
  Measles inh: -1.4

> C=CCOc1ccc2c(c1)CCC1C2CCC2(C)C(=O)CCC12 (stereo not drawn)
  Measles inh: -1.2

> c1ccc(CSc2nnc3c(n2)-c2cccc4cccc-3c24)cc1
  Measles inh: 0.95

> Cn1c2ccccc2c2nnc(SCC(=O)Nc3cccc(F)c3)nc21
  Measles inh: -0.53

> CC(C)(O)P1(=O)OCC2(CO1)COP(=O)(C(C)(C)O)OC2 (stereo not drawn)
  Measles inh: -0.13

> CCc1ccc(-c2csc(-c3cc4c(ccc5ccccc54)oc3=O)n2)cc1
  Measles inh: -0.14

> CCOC(=O)c1c(N=c2oc3cc(O)ccc3cc2C(N)=O)sc2c1CCCC2
  Measles inh: -0.32

> COc1ccc(C(C)=O)cc1CSc1nc2ccccc2c(=O)n1CCC1=CCCCC1
  Measles inh: 0.76

> Cc1c(C(=O)NC2CCCC2)oc2ccc(S(=O)(=O)N3CC(C)CC(C)C3)cc12 (stereo not drawn)
  Measles inh: 0.03

> COc1cccc(C2C(N3C(=O)c4ccccc4C3=O)C(=O)N2c2ccc(C)c(C)c2)c1 (stereo not drawn)
  Measles inh: 0.93

> Cc1nc2ccc3nc(NC(=O)c4ccc(S(=O)(=O)N(C)c5ccccc5)cc4)sc3c2s1
  Measles inh: 2.9

> CC1CCC(NC(=O)C(NC(=O)c2ccc(C34CC5CC(CC(C5)C3)C4)cc2)C(C)C)CC1 (stereo not drawn)
  Measles inh: 1.8

Continuation:
> O=[N+]([O-])c1ccc(Cl)c2cccnc12
  Measles inh: -0.05

> CCOC(=O)C1CCN(C(=O)Nc2ccc3nsnc3c2)CC1
  Measles inh: 0.47

> COCCN1C(=O)c2ccccc2C(C(=O)NCc2cccs2)C1c1c[nH]c2ccccc12 (stereo not drawn)
  Measles inh: -0.44

> COc1ccc(NC(=O)CN(c2ccccc2OC)S(C)(=O)=O)cc1Cl
  Measles inh: 2.2

> COc1ccc(C2CC(C(F)(F)F)n3ncc(C(=O)Nc4ccc(C#N)cc4)c3N2)cc1OC (stereo not drawn)
  Measles inh: -0.33

> COc1ccc(C2CC(c3ccccc3OC(F)F)n3nnnc3N2)cc1 (stereo not drawn)
  Measles inh: -0.18

> Cn1c(SCC(=O)c2ccc(O)cc2)nnc1-c1ccco1
  Measles inh: 0.66

> CCCCNC(=O)c1ccc[nH]c1=S
  Measles inh: 0.16

> CC1=C(C(=O)OCc2ccco2)C(c2cc3c(cc2Br)OCO3)NC(=O)N1 (stereo not drawn)
  Measles inh: -0.16

> CC1CCN(S(=O)(=O)c2ccc(F)c(C(=O)NC3CCCC(C)C3C)c2)CC1 (stereo not drawn)
  Measles inh: 0.66

> O=[N+]([O-])c1ccc(S(=O)(=O)N2CCN(S(=O)(=O)c3ccccc3)CC2)cc1
  Measles inh: -0.84

> COc1ccc(Cl)cc1NC(=O)CN1CCCC1
  Measles inh: -1.8

> Cc1ccc(C2CC(=O)C=C(NCCc3ccccc3)C2)cc1 (stereo not drawn)
  Measles inh: -0.3

> Cc1ccc(-n2c(=O)c3c(C)c(C)sc3n(CC(=O)NC3CCCCC3)c2=O)cc1C
  Measles inh: 0.31

> CC(=O)Oc1cccc(C(=O)Nc2cc(C(=O)O)ccc2C)c1
  Measles inh: 0.44

> C=CCn1c(SCCOC)nc2c1c(=O)[nH]c(=O)n2C
  Measles inh: -0.24

> Cc1cc(C)c(NC(=O)CSc2nc3ccc([N+](=O)[O-])cc3s2)c(C)c1
  Measles inh: -0.86

> CCCCN(C)CCNC(=O)c1cc2c(=O)[nH]c3ccccc3c2s1
  Measles inh: -0.55

> COc1ccc(-c2nn3c(C)cc(C)nc3c2Br)cc1
  Measles inh: 0.44

> CCOC(=O)c1ccc2c(=O)n(Cc3ccccc3)c(SCc3cccc([N+](=O)[O-])c3)nc2c1
  Measles inh: 0.73

> O=C(Nc1cccc(Cl)c1)c1ccc(F)c(S(=O)(=O)NCc2cccs2)c1
  Measles inh: -1.3

> O=C(NCc1ccc2c(c1)OCO2)c1cc(S(=O)(=O)N2CCCCC2)ccc1F
  Measles inh: 0.59

> Cc1ccc(S(=O)(=O)N=C2C=C(Nc3ccc(C)cc3C)C(=O)c3ccccc32)cc1
  Measles inh: 0.38

> C=CCNC(=O)C(=O)NCc1ccco1
  Measles inh: -1.3

> COc1ccccc1NC(=O)C(Cc1ccc([N+](=O)[O-])cc1)N1C(=O)c2ccccc2C1=O (stereo not drawn)
  Measles inh: 0.65

> CC1CCCN(S(=O)(=O)c2cccc3c(S(=O)(=O)N4CCCC(C)C4C)cccc23)C1C (stereo not drawn)
  Measles inh: -0.2

> O=C(NCc1ccco1)c1ccc2c(=O)n(C3CCCCC3)c(SCc3ccccc3F)nc2c1
  Measles inh: -0.29

> CCOc1ccc(C(=S)N2CCCCC2)cc1OC
  Measles inh: 0.39

> O=C(c1cccn2c(=O)c3ccccc3nc12)N1CCN(c2ccc([N+](=O)[O-])cc2)CC1
  Measles inh: -0.85

> O=C1Nc2ccc(S(=O)(=O)Nc3ccc4oc5c(c4c3)CCCC5)c3cccc1c23
  Measles inh: 2.1

> CCN(CC)S(=O)(=O)c1ccc(S(=O)(=O)N2CCOCC2)cc1
  Measles inh: 0.84

> O=C(CSc1nc(-c2ccccc2)nc2c1CCCC2)c1cccs1
  Measles inh: 0.56

> Cc1c(C(=O)O)oc2ccc(S(=O)(=O)NC3CC3)cc12
  Measles inh: -0.18

> Cc1cccc(Cl)c1OCCCc1c(C)n[nH]c1C
  Measles inh: -0.53

> Cc1ccc(C(=O)CSc2n[nH]c(-c3ccco3)n2)cc1C
  Measles inh: -0.58

> Cc1ccc(CNc2ccc3c(c2)ncn3C(C)(C)C)cc1
  Measles inh: -0.19

> CC(=O)c1c(-c2ccccc2)[nH]c2ccccc12
  Measles inh: 1.6

> COc1ccc(OC)c(CN2CCN(C(=O)c3cc(OC)c(OC)c(OC)c3)CC2)c1
  Measles inh: -0.9

> COc1ccc(C2CC(C(F)(F)F)n3nc(C(=O)Nc4ccc5c(c4)CCC5)cc3N2)cc1OC (stereo not drawn)
  Measles inh: -0.54

> O=C1NN=C(c2ccc(Br)cc2)CC1c1c[nH]c2ccccc12 (stereo not drawn)
  Measles inh: -0.43

> CSc1nnc2c(n1)OC(C=Cc1ccco1)Nc1ccccc1-2 (stereo not drawn)
  Measles inh: -0.7

> CCOCCOC(=O)c1ccc(NC(=O)c2cccs2)cc1
  Measles inh: 1.7

> O=C(Nc1ccccn1)c1c(O)c2ccccc2[nH]c1=O
  Measles inh: -0.06

> Cc1cc(Cl)ccc1OC(C)C(=O)Nc1ccccc1C(F)(F)F (stereo not drawn)
  Measles inh: -1.7

> COc1ccc(NC(=O)CCCn2c(=O)c3sccc3n(Cc3ccccc3F)c2=O)cc1
  Measles inh: -0.9

> Cc1c(C(=O)Nc2ccccc2C(F)(F)F)sc2ncn(Cc3ccccc3F)c(=O)c12
  Measles inh: 0.79

> Oc1ccccc1C1=NCCNC(C(F)(F)F)=C1
  Measles inh: 0.58

> O=C(Oc1ccc(Br)cc1)c1ccc([N+](=O)[O-])cc1
  Measles inh: 0.5

> CCOC(=O)C1CCN(CCC(=O)Nc2ccccc2C)CC1
  Measles inh: -1.5

> Nc1ccc(-c2cc(-c3ccccc3)c3c(ccc4ccccc43)n2)cc1
  Measles inh: -1

3 compounds from above, sorted by the value under Measles inh, low to high:
> O=C(c1cccn2c(=O)c3ccccc3nc12)N1CCN(c2ccc([N+](=O)[O-])cc2)CC1
  Measles inh: -0.85

> Cc1cccc(Cl)c1OCCCc1c(C)n[nH]c1C
  Measles inh: -0.53

> O=C(Oc1ccc(Br)cc1)c1ccc([N+](=O)[O-])cc1
  Measles inh: 0.5

The results go on.
> Cc1ccc(S(=O)(=O)N(CCN2C(=O)c3ccccc3C2=O)CCN2C(=O)c3ccccc3C2=O)cc1
  Measles inh: -0.65

> Cc1ccc(C)c(CN2C(=O)CSc3ccc(C(=O)NCCN4CCOCC4)cc32)c1
  Measles inh: -1.4

> Cc1cc(C)cc(NC(=O)CSc2nc(C)cc(=O)[nH]2)c1
  Measles inh: -0.76

> CCn1c(SCC(=O)NC(C)(C)C)nc2c1c(=O)n(C)c(=O)n2C
  Measles inh: 0.46

> O=C(NCc1ccc2c(c1)OCO2)c1ccc2c(c1)OCO2
  Measles inh: -0.69

> O=C(Cn1c(=O)oc2cc(Cl)ccc21)NCc1cccs1
  Measles inh: -0.35

> Cc1ccc2c(c1)N(CCC(=O)NCCCN1CCCC1=O)C(=O)CO2
  Measles inh: 1.1

> O=C(Nc1sc2c(c1C(=O)Nc1ccc(Cl)cc1)CCCC2)c1ccc([N+](=O)[O-])cc1
  Measles inh: 1.2

> Cc1cccc(NC(=O)c2sc(N)nc2-c2ccc([N+](=O)[O-])cc2)c1
  Measles inh: -0.47

> O=C(NCc1ccc2c(c1)OCO2)C1CCCN(S(=O)(=O)c2ccc(Br)s2)C1 (stereo not drawn)
  Measles inh: -0.63

> CCCN1CCN(C(=O)Cn2cnc3sc(C)c(C)c3c2=O)CC1
  Measles inh: -0.32

> Cc1c(Cl)cccc1-c1ccc(C(=O)Nc2ccc(F)cc2)o1
  Measles inh: -0.29

> CCOC(=O)c1cnc2ccc(OCC)cc2c1Nc1ccc2c(c1)OCO2
  Measles inh: -0.77

> c1ccc(OCCN(Cc2nc3ccccc3[nH]2)C2CCCCC2)cc1
  Measles inh: -0.33

> O=C(O)c1ccc2c(c1)c1c3n2CCNC3CCC1 (stereo not drawn)
  Measles inh: 0.24

> O=C(COc1ccccc1[N+](=O)[O-])Nc1ccc(C(=O)OC2CCCCC2)cc1
  Measles inh: 1.2

> CCCNC(=O)CCNC(=O)c1cccs1
  Measles inh: -2

> N#Cc1ccccc1Cn1c(=O)n(-c2cccc(C(F)(F)F)c2)c(=O)c2sccc21
  Measles inh: -0.4

> N=c1oc2ccc([N+](=O)[O-])cc2cc1C(=O)Nc1cccc(C(F)(F)F)c1
  Measles inh: 0.43

> Brc1ccc(CNc2ccc3c(c2)ncn3-c2ccccc2)cc1
  Measles inh: -1

> COc1cccc(OC)c1C(=O)Nc1nc2c(s1)CCc1ccccc1-2
  Measles inh: 1.1

> CCc1ccc(OCC(O)CN2CCN(c3ccc(OC)cc3)CC2)cc1 (stereo not drawn)
  Measles inh: -0.29

> COc1ccc(CN2CCCC(C(=O)N3CCc4ccccc4C3)C2)cc1OC (stereo not drawn)
  Measles inh: 1.4

> CCc1ccc(CNC(=O)C2CCN(S(=O)(=O)N3CCCC3)CC2)cc1
  Measles inh: 0.04

> Cc1cc(=O)[nH]c(SCc2cn3cccnc3n2)n1
  Measles inh: -0.24

> COc1cc(-c2onc3ccc(Br)cc23)cc(OC)c1OC
  Measles inh: -1.6

> COc1cc(NC(=O)c2cc3nc(-c4ccc(C)cc4)cc(C(F)(F)F)n3n2)cc(OC)c1OC
  Measles inh: 1.7

> Cc1nn(C)c(C)c1S(=O)(=O)Nc1ccc(Cl)cc1
  Measles inh: -1.5
